Source: PubChem
FGF22 binding = binders of human FGF22 protein, primary screen, FGF22 synaptogenesis inhibitor project, biophysical, thermal shift, single point. recombinant FGF22 thermal shift, SYPRO orange fluorescence; percent of sucrose octasulfate shift, DMSO zero. calls only at 9.99 µM. 340,000 compounds, 1.5% hits. AID 651658, 2012;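 active = melting point raised past a set limit in the mean and every replicate; three in four hits are not shown here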
Target sequence (Q9HCT0 whole entry, looked up): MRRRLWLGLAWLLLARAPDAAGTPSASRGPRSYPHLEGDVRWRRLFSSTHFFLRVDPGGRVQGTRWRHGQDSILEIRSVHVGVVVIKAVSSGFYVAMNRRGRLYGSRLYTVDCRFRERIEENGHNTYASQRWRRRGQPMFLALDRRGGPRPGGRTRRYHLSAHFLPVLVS
E coli growth = E. coli growth inhibition, primary screen, OD600; Escherichia coli growth, 23 h; stronger effect = lower value; OD600 absorbance (no concentration beside the values); 330,000 compounds, 0.21% hits; AID 1053175, 2014;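 active = OD600 absorbance below the run mean of sample wells minus 3.6 SD, in any replicate, cut at about 0.56 in these data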;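 also: stock transfer was 300 nL into about 60 µL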
rRNA inh HTS = reduced GFP signal of wild-type E. coli, primary screen, bacterial rRNA inhibitor project, GFP/RFP fluorescence, OD600, single point | E. coli WT GFP vs humanized-ribosome RFP mutants, 24 h; stronger effect = lower value; DMSO median 0, no signal -100 | GFP signal change (wild-type ribosome), % (test concentration not listed) | 350,000 compounds, 1.6% hits | AID 720706, 2013;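 active = significant combined selectivity score with lowered wild-type GFP, culture density cut under 30%, mutant RFP and density less affected; inactive = any of these conditions unmet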; also: one replicate is shown; some compounds called inactive have numbers as strong as hits
UCH37 DUB inh = inhibitors of human UCH37 deubiquitinase, primary screen, biochemical, Ub-AMC cleavage, fluorescence; Ubiquitin carboxyl-terminal hydrolase isozyme L5 (Homo sapiens), Q9Y5K5; purified proteasome/UCH37; inhibition, % (test concentration not listed); 330,000 compounds, 0.33% hits; AID 588478, 2011;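 active = mean of two replicates above 20%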;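 also: 0% = compound-free wells with enzyme and 100% = wells lacking proteasome; stock transfer was 100 nL into about 20 µL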
Target sequence (Q9Y5K5 whole entry, looked up): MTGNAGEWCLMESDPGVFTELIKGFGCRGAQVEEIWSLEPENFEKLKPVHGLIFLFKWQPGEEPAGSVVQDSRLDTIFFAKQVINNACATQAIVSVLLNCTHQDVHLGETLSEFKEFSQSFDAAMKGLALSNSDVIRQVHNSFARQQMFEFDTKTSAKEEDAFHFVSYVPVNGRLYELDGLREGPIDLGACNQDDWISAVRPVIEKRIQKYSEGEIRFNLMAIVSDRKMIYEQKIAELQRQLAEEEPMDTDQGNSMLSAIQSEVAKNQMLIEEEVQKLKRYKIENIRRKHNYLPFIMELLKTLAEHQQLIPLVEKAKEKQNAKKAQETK
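Material: Human UCH37 enzyme supplied as purified proteasome complex | Schedule: 30 min compound-proteasome preincubation then 25 min substrate reaction, room temperature | Detection: AMC fluorescence from Ub-AMC cleavage, excitation 355 nm, emission 460 nm | Benchmarks: Wells without proteasome as full block, compound-free enzyme plus substrate as uninhibited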
ALR inh = inhibitors of human ALR sulfhydryl oxidase, primary screen, biochemical, H2O2 detection, HRP-luminol luminescence, single point; FAD-linked sulfhydryl oxidase ALR (Homo sapiens), P55789; purified ALR, DTT oxidation; inhibition, % (test concentration not listed); 290,000 compounds, 3.8% hits; AID 485317, 2010;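 active = mean and each replicate at 75% or more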;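 also: stock transfer was 7.5 nL into about 7.5 µL; 0% = neutral wells and 100% = wells with inactivated enzyme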
HNF4A DNA FP = change in binding of human HNF4A to DNA, primary screen, biochemical, fluorescence polarization, FITC-DNA; activity change, % at 10 µM; 1 h; 360,000 compounds, 0.3% hits; AID 1224865, 2016; in the data active = activity change above about 30%, passing the limit was not always enough;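 also: controls were the assay level and a saturating level of protein; the project sought stronger binding though the title names inhibitors; some compounds called inactive have numbers as strong as hits; positive values seem to mean higher polarization but the record does not say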
Target sequence (P41235 whole entry, looked up): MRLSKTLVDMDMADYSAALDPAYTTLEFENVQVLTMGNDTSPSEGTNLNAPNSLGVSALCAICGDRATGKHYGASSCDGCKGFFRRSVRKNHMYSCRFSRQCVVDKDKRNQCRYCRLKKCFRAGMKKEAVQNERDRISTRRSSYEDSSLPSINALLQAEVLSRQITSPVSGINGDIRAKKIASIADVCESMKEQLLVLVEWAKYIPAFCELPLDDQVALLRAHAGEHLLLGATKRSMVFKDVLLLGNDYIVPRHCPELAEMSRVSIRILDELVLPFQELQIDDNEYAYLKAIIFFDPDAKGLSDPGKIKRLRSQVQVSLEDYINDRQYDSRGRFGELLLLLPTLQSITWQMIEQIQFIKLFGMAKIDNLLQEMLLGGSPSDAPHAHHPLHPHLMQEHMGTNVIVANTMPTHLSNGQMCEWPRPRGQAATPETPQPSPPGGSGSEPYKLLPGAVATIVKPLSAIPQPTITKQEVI
Beta2AR agonist = beta2AR agonists driving receptor internalization, primary screen, cell-based, FAP fluorogen, flow cytometry. AID 504454, 2011. Am2.2-beta2AR cells; reference of the scale not given here. response, % (concentration not given with the values). Beta-2 adrenergic receptor (Homo sapiens), P07550. 340,000 compounds, 0.43% hits;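 active = response above a set limit, near 3 SD of response in nonfluorescent compounds, cut at about 42% in these data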;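 also: stock transfer was 100 nL into about 11 µL; a reference agonist was the positive control; negative values mostly stem from fluorescent compounds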
rRNA inh HTS OD600 = further read-out of rRNA inh HTS, marked with its call; OD600 change, %; measured here: OD600 growth;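 optical density of the mix in the first replicate; 0 = DMSO median and -100 = no signal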
rRNA inh HTS RFP = also measured in rRNA inh HTS; calls as there; RFP signal change, %; measured here: RFP humanized mutant strains;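 first replicate; 0 = DMSO median and -100 = no signal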
Active calls of the source: *; i = inactive; x = not tested or not shown; & = joins results of further samples.

Start of the data: the first five compounds (preview)
SMILES	FGF22 binding	E coli growth	rRNA inh HTS	rRNA inh HTS OD600	rRNA inh HTS RFP	UCH37 DUB inh	ALR inh	HNF4A DNA FP	Beta2AR agonist
C1CCN(c2nc(N3CCCCC3)nc(N3CCNCC3)n2)CC1	x	0.75	x	x	x	-1.1	3	-1.3	3
CC(C)n1nc(C(=O)OCC(=O)NCCc2ccc(S(N)(=O)=O)cc2)c2ccccc2c1=O	i	0.68	2	5	-0.1	3.7	x	-1.3	4
NNC(=S)NCc1ccccc1	i	0.66	12	13	2.5	5.3	x	0.1	1
Cc1ccc(C(=O)Oc2ccc(/C=C3\C(=N)N4N=C(N5CCOCC5)SC4=NC3=O)cc2)cc1	i	0.72	-5	-6	-0.3	2.0	-8	0.0	11
Cc1[nH]nc2c1C(=O)CCC2	x	0.76	x	x	x	0.8	100*	4.4	-5

The whole of this part, previewed entries included:
SMILES	FGF22 binding	E coli growth	rRNA inh HTS	rRNA inh HTS OD600	rRNA inh HTS RFP	UCH37 DUB inh	ALR inh	HNF4A DNA FP	Beta2AR agonist
C1CCN(c2nc(N3CCCCC3)nc(N3CCNCC3)n2)CC1	x	0.75	x	x	x	-1.1	3	-1.3	3
CC(C)n1nc(C(=O)OCC(=O)NCCc2ccc(S(N)(=O)=O)cc2)c2ccccc2c1=O	i	0.68	2	5	-0.1	3.7	x	-1.3	4
NNC(=S)NCc1ccccc1	i	0.66	12	13	2.5	5.3	x	0.1	1
Cc1ccc(C(=O)Oc2ccc(/C=C3\C(=N)N4N=C(N5CCOCC5)SC4=NC3=O)cc2)cc1	i	0.72	-5	-6	-0.3	2.0	-8	0.0	11
Cc1[nH]nc2c1C(=O)CCC2	x	0.76	x	x	x	0.8	100*	4.4	-5
N#C/C(=C\c1cc2c(cc1Br)OCO2)C(=O)NCC1CCCO1 (stereo unspecified)	i	0.69	-7	-6	-1.6	2.2	98*	4.3	4
Cc1cc(CNC(=O)C2(C(F)(F)F)CC(CCCO)CCCO2)nn1C (stereo unspecified)	i	0.68	9	13	6.5	1.2	-2	-0.7	-5
CC(C)c1ccccc1NC(=O)CNCCOc1ccccc1F	i	0.64	-7	-12	0.1	5.9	x	0.4	-2
Cc1cnc(NC(=O)c2cccc(S(=O)(=O)N3CCOCC3)c2)s1	i	0.7	-5	-12	-3.1	0.6	-4	-1.1	2
COc1ccc(S(=O)(=O)Nc2cc3c4c(c2)CCC(=O)N4CCC3)cc1	i	0.68	-17	-14	6.3	3.6	x	1.1	3
Cc1ccc(CSc2nc3ccccc3c(=O)n2Cc2ccco2)cc1	x	0.71	x	x	x	0.4	2	2.9	-10
CCOC(=O)c1sc(=S)n(C)c1NC(=O)c1ccccc1	x	0.7	x	x	x	6.0	-4	-1.8	6
CN(C)C(=O)c1ccc(NC(=O)COC(=O)C2(c3ccccc3)CCCC2)cc1	i	0.62	-26	-44	-16	0.5	-2	2.5	22
COc1ccc(-c2csc(NC(C)c3nc4cc(Cl)c(Cl)cc4n3CCOCCO)n2)cc1 (stereo unspecified)	i	0.69	-4	-3	0.2	5.3	-7	2.1	16
CC(=O)Nc1nc2ccc(C(=O)NC3CCCCC3)cc2s1	x	0.8	x	x	x	3.3	x	-2.1	4
CC(C)c1ccc(NS(=O)(=O)c2ccc3c(c2)NC(=O)CO3)cc1	i	0.69	0	-1	1.1	2.4	-1	-0.1	1
CCOC(=O)C1(C)CCCN(C(=O)c2snnc2C)C1 (stereo unspecified)	i	x	9	31	-0.4	x	x	2.2	x
CC(C)OP(=O)(OC(C)C)C(O)c1cccc([N+](=O)[O-])c1 (stereo unspecified)	i	0.68	9	2	-0.4	1.1	-5	-1.7	1
CN(C(=O)COc1ncnc2ccccc12)C1CCCCC1	i	0.68	16	16	1.6	1.3	-2	0.2	-1
c1ccc2c(c1)Nc1cc3ccccc3cc1S2	i	0.72	-21*	-3.3*	0.9*	-0.6	-14	2.0	-4
CCc1nc(C)ccc1OC(=O)C12CC3CC(CC(C3)C1)C2	i	0.67	0	4	4.7	0.2	-3	-3.2	6
CCN(CC)C(=O)Cn1cc(C(=O)C2CC2)c2ccccc21	x	0.69	13	8	-0.4	3.1	-4	0.3	1
O=C(CSc1nnnn1-c1ccc(Cl)cc1)Nc1cccnc1Cl	x	0.67	x	x	x	-0.9	-2	-2.9	-9
CN(C)c1nc2n(c(=S)n1)CCS2	x	0.69	x	x	x	4.9	16	1.1	2

3 entries picked at random from the list so far:
SMILES	FGF22 binding	E coli growth	rRNA inh HTS	rRNA inh HTS OD600	rRNA inh HTS RFP	UCH37 DUB inh	ALR inh	HNF4A DNA FP	Beta2AR agonist
CCc1nc(C)ccc1OC(=O)C12CC3CC(CC(C3)C1)C2	i	0.67	0	4	4.7	0.2	-3	-3.2	6
CN(C)C(=O)c1ccc(NC(=O)COC(=O)C2(c3ccccc3)CCCC2)cc1	i	0.62	-26	-44	-16	0.5	-2	2.5	22
CN(C(=O)COc1ncnc2ccccc12)C1CCCCC1	i	0.68	16	16	1.6	1.3	-2	0.2	-1

(list continues)
SMILES	FGF22 binding	E coli growth	rRNA inh HTS	rRNA inh HTS OD600	rRNA inh HTS RFP	UCH37 DUB inh	ALR inh	HNF4A DNA FP	Beta2AR agonist
CCOC(=O)n1c(=O)n(Cc2ccc(F)cc2)c2ccccc21	i	0.69	-25	-49	-1.3	2.4	-1	-1.1	-6
N#Cc1c(N2C(=O)C3C4C=CC(C4)C3C2=O)sc2c1CCC2 (stereo unspecified)	x	0.7	x	x	x	0.6	4	2.0	-7
COc1ccc(OC)c(N(CC(=O)NC2CCCCCC2)S(=O)(=O)c2ccc(C)cc2)c1	i	0.67	18	20	0.9	0.4	-13	3.0	0
COc1ccccc1OCC(=O)N(Cc1nc(-c2ccccc2)no1)C(C)C	i	0.66	-1	-2	3.0	2.2	-1	-0.3	5
Cc1nnc(SCCN2CCOCC2)n1-c1cccc(Cl)c1	x	0.67	x	x	x	2.2	8	-3.0	1
C[C@H]1CN([C@@H](C)CO)S(=O)(=O)c2ccc(Br)cc2O[C@@H]1CN(C)S(=O)(=O)c1ccccc1F	i	x	-13&4	-38&1	0.3&-6.3	x	x	-3.5	x
C=CCN(C(=O)CNC(=O)c1ccco1)C(C(=O)NC1CCCCC1)c1ccc(OC)cc1 (stereo unspecified)	x	0.69	x	x	x	0.0	-1	-2.6	-3
CC(Sc1ccc(Cl)cc1)C(=O)NNC(=O)c1ccco1 (stereo unspecified)	i	0.67	0	5	1.2	2.2	10	-0.8	9
CC1CN(C(=O)NCc2ccccc2)c2cc(Cl)ccc2O1 (stereo unspecified)	i	0.72	0	0	-7.1	0.8	-3	-0.6	2
NS(=O)(=O)c1ccc(NC(=O)C(=O)NCCC(=O)O)cc1	i	0.7	3	5	0.2	0.5	-2	2.4	5
Cc1c(Cl)cccc1NC(=O)Nc1cnccn1	i	0.7	1	5	-3.1	6.6	1	1.3	7
CC1CCCCN1C(=O)COC(=O)c1ccc2ccccc2n1 (stereo unspecified)	i	0.7	1	2	-1.6	-1.9	2	-1.4	6
CN1CCN(C(=O)CCc2nc(-c3ccc(Cl)cc3)no2)CC1	i	0.69	6	7	2.2	3.7	-16	-1.7	-7
CN1CCN(C(CNC(=O)C(=O)Nc2ccc3c(c2)OCCO3)c2ccc(F)cc2)CC1 (stereo unspecified)	i	0.61	3	10	0.5	2.9	-4	3.8	-5
COc1ccc(-c2nnn(CC(=O)c3c[nH]c4ccccc34)n2)cc1OC	x	0.72	x	x	x	0.3	-10	13	-1
Cc1ccc(-n2c3c(cc(C(=O)NCC(=O)c4ccccc4)c2=O)C(=O)CCC3)cc1	i	0.64	12	1	1.6	-9.1	-5	1.4	-4
Nc1nc(N)c(-c2cccc(C(F)(F)F)c2)c(Cc2cccc(C(F)(F)F)c2)n1	i	x	-45	-70	-14	x	x	0.1	-10
COC(=O)c1c(NC(=O)c2ccccc2)sc(C(=O)c2ccccc2)c1C	x	0.75	x	x	x	-0.8	-9	1.9	-6
O=C(O)CCCCCNC(=O)Nc1ccc2c(c1)OCCO2	x	0.74	x	x	x	-2.8	2	-2.4	7
COCCOc1nc2ccccc2nc1C	x	0.72	x	x	x	-1.7	-3	-1.2	5
O=C(CSc1nnc(Cc2ccccc2)o1)NCc1ccc2c(c1)OCO2	i	0.68	-4	3	-1.1	2.4	-1	5.6	0
CC(C)c1ccc(OCc2ccc(C(=O)N(C)C)o2)cc1	i	0.66	-35	-35	-7.5	0.5	x	-4.3	-4
O=C(N/N=C/c1ccc(Br)cc1)c1ccccc1-n1cccc1	i	x	-41*	-26*	-9.2*	x	-9	2.5	4
Cc1nonc1NC(=O)CSc1nc2ccccc2[nH]1	i	0.7	5	11	1.6	4.6	x	-3.2	-12
CCCCn1c(N)c(N(CC(C)C)C(=O)c2ccc(S(=O)(=O)N3CCC(C)CC3)cc2)c(=O)[nH]c1=O	i	0.65	2	10	-0.3	-5.2	8	-1.9	3
O=C(CSc1nnc(CNC(=O)c2c(F)cccc2Cl)o1)Nc1ccccc1	x	0.69	x	x	x	3.1	-28	3.0	2
COC(=O)C(NC(C)=O)(Nc1sc2c(c1C(N)=O)CCCC2)C(F)(F)F (stereo unspecified)	i	0.69	-8	-5	-1.8	1.9	9	1.8	5
O=C(NCCS(=O)(=O)N1CCN(c2ccc(F)cc2)CC1)c1ccc2c(c1)OCO2	i	0.68	-2	2	-0.7	1.6	2	-0.5	-6
CCOc1ccc(S(=O)(=O)NCc2ccccn2)cc1NC(=O)c1ccccc1	i	0.64	-6	1	0.8	4.5	1	-1.7	19
CN(C(=O)C1CCCO1)c1nnc(-c2cnccn2)s1 (stereo unspecified)	x	0.74	x	x	x	-1.7	1	2.6	-7
CCN(CC)C(=O)c1ccccc1NC(=O)c1ccccc1SC	i	0.73	12	5	-4.8	5.6	-11	4.7	-5
O=C(CC[C@H]1O[C@@H](n2ccc(=O)[nH]c2=O)[C@H](O)[C@@H]1O)NCc1ccc2c(c1)OCO2	i	x	0	-7	-3.7	x	x	2.4	x
COc1ccc(Cn2nnnc2C(c2ccccc2Cl)N2CCC(C(N)=O)CC2)cc1 (stereo unspecified)	x	0.72	x	x	x	6.1	-28	4.1	6
O=C(Nc1nccs1)c1nc[nH]c1C(=O)NCc1ccccc1	i	0.71	8	2	-3.1	-0.7	-16	12	-7
O=C(NCCO)C(O)C(O)C(=O)NCCO (stereo unspecified)	i	0.68	11	6	1.1	3.6	-2	-5.6	-1
CCCN(c1ccc(C(C)C)cc1)S(=O)(=O)c1c(C)[nH]c(=O)[nH]c1=O	i	0.66	10	5	-6.4	0.3	-1	-2.7	-1
CCN(CC(=O)Nc1c(F)cccc1F)C(=O)c1cc(S(=O)(=O)N(CC)CC)ccc1N1CCCCC1	i	0.69	8	-16	-0.7	-0.7	3	1.7	4
O=[N+]([O-])c1ccc(COc2cccnc2)cc1	i	0.73	11	1	-3.6	0.3	1	3.0	-1

Some of the compounds tested; count on the stated rates, not on these rows.
